ALR H2O2 inh = human ALR oxidase inhibition via reduced H2O2; P55789; purified ALR, DTT oxidation, H2O2 HRP-luminol luminescence; inhibition, % (no concentration beside the values); 290,000 tested, 3.8% active; AID 485317;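 active means mean and each replicate at 75% or more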;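 further: stock transfer was 7.5 nL into about 7.5 µL; 0% = neutral wells and 100% = wells with inactivated enzyme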
Target sequence (P55789 whole entry, looked up): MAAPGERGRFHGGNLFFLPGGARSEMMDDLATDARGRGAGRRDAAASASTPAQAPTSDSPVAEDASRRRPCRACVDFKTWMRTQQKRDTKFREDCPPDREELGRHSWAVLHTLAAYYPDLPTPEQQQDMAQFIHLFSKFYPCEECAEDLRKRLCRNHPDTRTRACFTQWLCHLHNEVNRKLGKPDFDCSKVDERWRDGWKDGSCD
HNF4A DNA FP = change in binding of human HNF4 alpha to DNA; HNF4a-FITC DNA binding, fluorescence polarization, 1 h; activity change, % at 10 µM; 360,000 tested, 0.3% active; AID 1224865; in the data active means activity change above about 30%, passing the limit was not always enough;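 further: controls were the assay level and a saturating level of protein; the project sought stronger binding though the title names inhibitors; some compounds called inactive have numbers as strong as hits; positive values seem to mean higher polarization but the record does not say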
Target sequence (P41235 whole entry, looked up): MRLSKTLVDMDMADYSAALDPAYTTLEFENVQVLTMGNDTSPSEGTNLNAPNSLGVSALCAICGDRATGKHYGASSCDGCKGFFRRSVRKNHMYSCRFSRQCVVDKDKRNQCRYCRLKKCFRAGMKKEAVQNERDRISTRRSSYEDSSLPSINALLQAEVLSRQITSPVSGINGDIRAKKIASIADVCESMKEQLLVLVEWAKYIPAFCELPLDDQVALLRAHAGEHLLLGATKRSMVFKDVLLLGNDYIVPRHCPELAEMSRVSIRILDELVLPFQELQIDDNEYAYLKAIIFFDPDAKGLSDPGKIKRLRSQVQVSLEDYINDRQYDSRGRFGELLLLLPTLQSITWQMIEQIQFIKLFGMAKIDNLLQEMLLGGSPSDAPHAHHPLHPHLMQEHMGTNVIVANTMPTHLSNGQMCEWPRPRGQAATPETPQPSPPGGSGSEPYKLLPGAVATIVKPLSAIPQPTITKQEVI
Beta2AR agonist = agonists of human beta-2 adrenergic receptor inducing internalization; P07550; Am2.2-beta2AR cells, FAP receptor internalization, flow cytometry; reference of the scale not given here; response, % (test concentration not listed); 340,000 tested, 0.43% active;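 active means response above a set limit, near 3 SD of response in nonfluorescent compounds, cut at about 42% in these data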;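 further: stock transfer was 100 nL into about 11 µL; a reference agonist was the positive control; negative values mostly stem from fluorescent compounds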
Target sequence (P07550 whole entry, looked up): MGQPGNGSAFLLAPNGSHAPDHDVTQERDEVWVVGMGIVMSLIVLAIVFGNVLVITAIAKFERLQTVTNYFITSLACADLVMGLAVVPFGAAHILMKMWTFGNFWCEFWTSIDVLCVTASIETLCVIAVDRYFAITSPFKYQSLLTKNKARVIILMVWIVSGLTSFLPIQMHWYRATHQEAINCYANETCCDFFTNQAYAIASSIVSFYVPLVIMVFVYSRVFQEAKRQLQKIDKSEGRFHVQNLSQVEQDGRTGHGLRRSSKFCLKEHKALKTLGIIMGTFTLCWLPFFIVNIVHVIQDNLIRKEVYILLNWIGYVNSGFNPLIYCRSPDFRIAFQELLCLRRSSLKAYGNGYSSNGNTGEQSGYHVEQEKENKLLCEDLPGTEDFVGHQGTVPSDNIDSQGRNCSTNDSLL
Ecoli rRNA inh = inhibitors of bacterial rRNA selective over humanized ribosomes | E. coli WT GFP vs humanized-ribosome RFP mutants, fluorescence, 24 h; active compounds read low; DMSO median 0, no signal -100 | GFP signal change (wild-type ribosome), % (test concentration not listed) | 350,000 tested, 1.6% active;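 active means significant combined selectivity score with lowered wild-type GFP, culture density cut under 30%, mutant RFP and density less affected; inactive means any of these conditions unmet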; further: one replicate is shown; some compounds called inactive have numbers as strong as hits
E coli growth = E. coli growth inhibition; Escherichia coli growth, OD600, 23 h; active compounds read low; OD600 absorbance (concentration not given with the values); 330,000 tested, 0.21% active; AID 1053175;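 active means OD600 absorbance below the run mean of sample wells minus 3.6 SD, in any replicate, cut at about 0.56 in these data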;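 further: stock transfer was 300 nL into about 60 µL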
FGF22 binding = shifts melting point of recombinant human FGF22; recombinant FGF22 thermal shift, SYPRO orange fluorescence; percent of sucrose octasulfate shift, DMSO zero; calls only at 9.99 µM; Q9HCT0; 340,000 tested, 1.5% active;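 active means melting point raised past a set limit in the mean and every replicate; three in four hits are not shown here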
UCH37 DUB inh = inhibitors of human deubiquitinating enzyme UCH37. purified proteasome/UCH37, Ub-AMC cleavage fluorescence. inhibition, % (no concentration beside the values). 330,000 tested, 0.33% active. AID 588478;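 active means mean of two replicates above 20%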;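 further: 0% = compound-free wells with enzyme and 100% = wells lacking proteasome; stock transfer was 100 nL into about 20 µL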
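System: Proteasome-associated human UCH37 deubiquitinase; Input: 0.15 nM proteasome in added enzyme buffer; Also added: Ub-AMC substrate from 1 µM stock; Incubation: 30 min compound-proteasome preincubation then 25 min substrate reaction, room temperature; Detection: fluorescence, ex 355 nm, em 460 nm; Read-out: % inhibition of Ub-AMC cleavage fluorescence; Benchmarks: no-proteasome and no-compound wells.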
Ecoli rRNA inh OD600 = further read-out of Ecoli rRNA inh, marked with its call; OD600 change, %; measured here: OD600 growth;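 optical density of the mix in the first replicate; 0 = DMSO median and -100 = no signal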
Ecoli rRNA inh RFP = second read-out of Ecoli rRNA inh, no call of its own (marks repeat the call); RFP signal change, %; measured here: RFP humanized mutant strains;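 first replicate; 0 = DMSO median and -100 = no signal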
Starred values were filed as active, the others as inactive; i = inactive; · = no result given.

SMILES	ALR H2O2 inh	HNF4A DNA FP	Beta2AR agonist	Ecoli rRNA inh	Ecoli rRNA inh OD600	Ecoli rRNA inh RFP	E coli growth	FGF22 binding	UCH37 DUB inh
CC(=O)N1CC(=O)Nc2ccc(C)cc2C1c1ccccc1 (centres undefined)	-5	2.8	-14	7	8	-1.3	0.69	i	1.6
COC(=O)C(O)(c1ccc(N(C)C(=O)COc2ccccc2)cc1)C(F)(F)F (centres undefined)	·	-3.6	-1	14	20	3.5	0.7	i	3.2
Cc1ccc(N2C(=O)/C(=C/N3CCN(C(=O)c4ccco4)CC3)C(=O)NC2=S)cc1C	45	2.4	-5	·	·	·	·	·	-3.0
Cc1cccc(NP2(=O)NCCCN2)c1	·	-3.2	-3	16	20	-0.5	0.66	·	0.3
CC(=CCOc1ccc2ccc(=O)oc2c1)C1=CC(=O)C(C)(C)O1	·	3.6	·	4	-11	0.9	·	i	·
Cc1cc(C(=O)CS(=O)(=O)c2ccccc2)cc(C)c1OC(=O)N(C)C	-15	0.1	4	3	-5	4.0	0.65	·	5.4
CC1=C2C(=O)C3C(CC=C4CC(OC5OC(O)C(O)C(O)C5CO)CCC43C)C2CCC12OC1CC(C)CNC1C2C (centres undefined)	-7	2.2	5	6	14	-0.6	0.66	i	1.9
COc1cc2c(C(=O)N3CCN(C)CC3)c(C)n(C)c2cc1Br	-13	0.5	5	·	·	·	0.72	·	1.7
COc1ccc(C2C(C#N)=C(N)Oc3c2c(=O)oc2ccccc32)cc1Cn1cc([N+](=O)[O-])cn1 (centres undefined)	-3	3.2	-14	·	·	·	0.7	·	3.0
C=CCn1c(O)c(C(CC)=NCCc2c[nH]c3ccccc23)c(=O)[nH]c1=O	1	-2.6	-1	-13	-17	2.6	0.64	i	5.2
O=c1[nH]c(=S)n(C2CC2)c(O)c1C=NCc1ccc(F)cc1	-5	-0.4	-3	1	5	-3.5	0.53	i	0.8
COc1cc(O)cc2c1C(=O)OC(C)CCCC(=O)CCC/C=C\2 (centres undefined)	3	-5.5	4	-4	-17	1.0	·	i	·
COc1cc(C=C2C(=O)NC(=O)NC2=O)ccc1O	30	-1.4	3	11	5	-1.0	·	i	·
CCC(C)N1C(=O)/C(=C\c2cnc(N(C)C)nc2)C(=O)NC1=S (centres undefined)	18	2.1	8	17	9	-0.5	0.66	i	6.0
COc1cccc(-n2c(=S)[nH]c3ccccc3c2=O)c1	60	3.4	-4	9	12	3.5	0.75	i	7.2
CC(=O)OC1N=C(c2ccccc2)c2cc(C)ccc2NC1=O (centres undefined)	-11	1.0	-2	·	·	·	0.75	·	3.2
COc1ccc(-n2nnnc2C(CCc2ccccc2)N2CCC(n3c(=O)[nH]c4ccccc43)CC2)cc1 (centres undefined)	·	-1.5	·	12	11	0.5	·	i	·
CC(C)N1CCN(Cc2cccc([N+](=O)[O-])c2)CC1	·	11	2	12	22	1.9	0.64	i	4.6
CC(=O)Nc1nc(CCl)cs1	·	6.4	-2	4	27	0.6	0.63	i	5.2
CC[C@@]1(O)C(=O)OCc2c1cc1n(c2=O)Cc2cc3c(NC(=O)CN)cccc3nc2-1	-22	-1.8	13	14	13	-0.9	0.64	i	i

Of the compounds above, 2 contain a nitro group on carbon.
SMILES	ALR H2O2 inh	HNF4A DNA FP	Beta2AR agonist	Ecoli rRNA inh	Ecoli rRNA inh OD600	Ecoli rRNA inh RFP	E coli growth	FGF22 binding	UCH37 DUB inh
COc1ccc(C2C(C#N)=C(N)Oc3c2c(=O)oc2ccccc32)cc1Cn1cc([N+](=O)[O-])cn1 (centres undefined)	-3	3.2	-14	·	·	·	0.7	·	3.0
CC(C)N1CCN(Cc2cccc([N+](=O)[O-])c2)CC1	·	11	2	12	22	1.9	0.64	i	4.6

Returning to the listing; the 4 compounds before the break are reprinted first.
SMILES	ALR H2O2 inh	HNF4A DNA FP	Beta2AR agonist	Ecoli rRNA inh	Ecoli rRNA inh OD600	Ecoli rRNA inh RFP	E coli growth	FGF22 binding	UCH37 DUB inh
COc1ccc(-n2nnnc2C(CCc2ccccc2)N2CCC(n3c(=O)[nH]c4ccccc43)CC2)cc1 (centres undefined)	·	-1.5	·	12	11	0.5	·	i	·
CC(C)N1CCN(Cc2cccc([N+](=O)[O-])c2)CC1	·	11	2	12	22	1.9	0.64	i	4.6
CC(=O)Nc1nc(CCl)cs1	·	6.4	-2	4	27	0.6	0.63	i	5.2
CC[C@@]1(O)C(=O)OCc2c1cc1n(c2=O)Cc2cc3c(NC(=O)CN)cccc3nc2-1	-22	-1.8	13	14	13	-0.9	0.64	i	i
CCCC/C(=N/O)c1c(C)[nH]c2ccccc12	99*	-1.2	-2	-11	-10	-2.2	·	i	·
COCCCn1c(N)c(C(=O)NCc2ccco2)c2nc3ccccc3nc21	24	·	-1	14	-8	2.6	·	i	·
CCOP(=O)(OCC)C(NC(=O)c1ccccc1)C(Cl)(Cl)Cl (centres undefined)	-2	-2.3	2	3	5	-13	·	i	·
O=P(Oc1ccccc1)(Oc1ccccc1)N1CCOCC1	·	0.8	2	11	0	-1.0	0.68	i	4.9
Brc1ccc2c(c1)CN(CC1CCCCC1)Cc1cnnn1-2	·	0.0	·	-17	-31	-7.7	·	i	·
CCC1(CCc2ccncc2)C(=O)NC(=O)NC1=O	-2	2.9	0	·	·	·	0.71	·	4.5
C[n+]1c(-c2ccccc2)cc(CCCCc2cc(-c3ccccc3)[n+](C)c(-c3ccccc3)c2)cc1-c1ccccc1	-12	16	14	-48	-48	-4.3	0.66	i	-3.3
COc1ccc(Cn2c(O)c(/C=N/NC(=O)c3ccccc3)c(=O)[nH]c2=O)cc1	37	7.7	6	6	7	2.3	0.71	·	-210
O=P(Oc1ccccc1)(N1CCOCC1)N1CCOCC1	·	2.4	-1	6	14	-0.3	0.7	i	0.0
CCCCc1ccc(NC2=NCCCS2)cc1	·	1.2	-1	-2	-20	-3.0	0.62	i	0.8
CN(C)CCSC1c2ccccc2CSc2ccccc21 (centres undefined)	-4	4.2	3	0	4	-0.8	0.62	i	3.6
COC(=O)C1=C(c2ccccc2)C[C@@H]2CC[C@H]1N2C(=O)N1CCC(O)CC1	·	0.9	4	-1	-4	-2.1	·	i	-1.3
Cc1ccccc1-n1c(O)c(/C=C2/C(c3ccccc3)=Nc3ccccc32)c(=O)[nH]c1=O	30	2.8	27	-27	-27	7.1	0.68	i	4.5
COCCCNP1(=O)OCC(C)([N+](=O)[O-])CO1 (centres undefined)	·	-2.8	-3	6	-2	0.8	·	i	·
CN1CCCN(C(=O)COc2ccc(F)cc2Cl)CC1	-6	0.3	-2	9	12	-4.5	0.66	i	5.2
O=C1NCN(c2ccccc2)C12CCN(C(c1ccnc3ccccc13)c1nnnn1C1CCCCC1)CC2 (centres undefined)	·	2.1	·	1	4	-2.5	·	i	·
CN(C)C1(c2nnnn2-c2ccc(Cl)cc2)CCCCC1	-20	-5.9	2	5	-11	-5.9	·	i	·
FC(F)(F)c1ccccc1CCN1CCNCC1	1	0.7	0	6	3	-0.2	0.68	i	2.2
CN(C(=O)c1ccco1)C1(c2ccccc2Cl)CCCCC1=O (centres undefined)	-19	-1.1	1	·	·	·	0.74	·	-1.7
C1CCCN(C2CCNCC2)CC1	2	2.8	0	24	19	2.4	0.65	i	4.7
CSc1nc(Cl)c(Br)c(N2CC2)n1	·	-2.0	-3	4	0	-2.9	0.69	i	0.7
COC(=O)c1ccc(CC(C(=O)c2ccccc2)N(C)C)cc1 (centres undefined)	·	5.2	-50	-12	-8	22	0.63	i	-4.8
CCCC(=O)N(C)C1=Nc2ccc(Cl)cc2C(c2ccccc2)=[N+]([O-])C1	-8	4.0	0	-5	-6	-3.3	0.64	i	0.6
O=C1CC(N2CC=C(c3ccc(F)cc3)CC2)C(=O)N1c1ccc(F)cc1 (centres undefined)	-8	3.7	19	·	·	·	0.71	·	2.7
O=C(CN1CC(c2ccccc2)CC1=O)Nc1ccc(F)cc1 (centres undefined)	·	7.1	-3	0	10	0.6	0.74	i	2.3
CC1([N+](=O)[O-])COP(=O)(Nc2ccc(F)cc2)OC1 (centres undefined)	·	11	-5	1	10	0.2	·	i	·
COc1ccc(OC)c(CN2CCN(C(=O)Cc3ccccc3)CC2)c1	-2	1.6	-4	4	5	0.3	0.61	i	5.5
CSc1nc2ccccc2c(=O)n1-c1cccnc1	-6	-7.1	-6	2	6	-0.5	0.7	i	-1.3
CCCC(=O)C1C(=O)NC(=O)NC1=O	-18	0.4	0	·	·	·	0.76	·	-1.2
COc1ccc(-n2c(O)c(C(C)=NCc3ccco3)c(=O)[nH]c2=O)cc1	-3	6.0	0	·	·	·	0.69	·	3.3
Cc1ccccc1NC1=NCC(C)S1 (centres undefined)	2	2.2	9	·	·	·	0.67	·	0.9
CN1OC[C@@H]2CN[C@H](c3ccc(Br)cc3)C[C@@H]21	·	-0.8	·	17	9	3.1	·	i	·
CCN1CCN(C(=O)COc2ccc(S(=O)(=O)N3CCOCC3)cc2C)CC1	2	6.0	-3	9	3	-0.8	0.71	i	4.5
CC(C)C[C@@H]1COc2cccc(N3CCN(C)CC3)c2S(=O)(=O)N1	·	0.6	·	28	11	2.8	·	i	·
COC(=O)C1=C(c2ccc(-c3ccccc3)c(F)c2)C[C@@H]2CC[C@H]1N2C(=O)N1CCc2cc(OC)c(OC)cc2C1	-3	0.8	7	-6	-4	-2.2	·	i	6.7
Cc1ccccc1CN1CCN(c2ccc(Cl)cc2)CC1	34	-3.5	-3	-14	-12	2.0	0.67	i	2.8
Cc1ccc(-n2c(-c3ccc([N+](=O)[O-])cc3)nc3ccccc3c2=O)cc1	-3	-0.3	-6	17	9	-0.4	0.72	i	3.9
COc1ccc(Oc2cc(NC(=O)c3nn(C)cc3[N+](=O)[O-])cc([N+](=O)[O-])c2)cc1	-4	5.6	12	-2	2	-1.9	0.68	i	4.1
CC[C@@H](O)C[C@H]1CCC[C@@]2(C[C@@H]3OC(=O)/C=C/[C@@](C)(O)[C@@H](O)[C@H](C)[C@@H](O)[C@H](OC4CCC(N(C)C)C(C)O4)[C@@H](O)[C@](C)(O)CCCCC/C=C/[C@@H]4CC(C)(C)O[C@@]4(O)C[C@H](O2)[C@H]3C)O1 (some centres undefined)	·	0.2	19	6	9	0.9	·	i	·
Cc1nn(-c2ccccc2)c2c1C(c1ccc3c(c1)OCO3)SCC(=O)N2 (centres undefined)	-6	-3.4	-4	-9	-13	-4.0	0.7	i	-0.7
O=C(c1c[nH]cc1-c1ccccc1)c1cccc2ccccc12	·	0.8	18	·	·	·	0.71	·	5.3
O=C(c1ccccc1)C(CN1CCCC1)c1ccccc1 (centres undefined)	97*	5.5	12	·	·	·	0.7	·	0.2
ClCCN(CCCl)c1ccc(C=NNc2ncccn2)cc1	·	-3.8	3	-7	0	-1.6	0.66	i	18
O=C(O)c1ccc(-[n+]2c(-c3ccccc3)cc(-c3ccccc3)cc2-c2ccccc2)cc1	5	-3.2	-4	8	6	-1.3	0.63	i	-0.4
COc1ccccc1NC1=NCCS1	6	1.8	4	·	·	·	0.71	·	2.1
NCCNc1ccc([N+](=O)[O-])c2cccnc12	-12	-7.4	2	0	-5	0.1	0.63	i	9.4
COc1ccc2c(c1O)C13CCN(C)C(C2)C1CCC(=O)C3 (centres undefined)	-2	-2.4	9	8	19	3.4	0.62	i	1.0
CC1C(=O)OC2CCN3CC4OC4(COC(=O)C(C)(O)C1(C)O)C23 (centres undefined)	·	0.4	-4	3	8	-2.8	·	i	·
Cc1ccccc1NS(=O)(=O)c1ccc(OCC(=O)N2CCN(C)CC2)cc1	-2	-6.5	-1	5	17	-0.1	0.7	i	0.3

A portion of the library (hit frequency here may not be typical).
